Cruzain inh noDet: cruzain (T. cruzi) inhibition without detergent | Potency, µM, for inactives: max response, negative = inhibition, actives largely listed as inhibitors | 2.3% of 200,000 active | AID 1476 | P25779 | purified cruzain, Z-FR-AMC fluorescence, no detergent; active means well fitted curve in the direction sought with a large enough effect; inconclusive means small, poorly fitted or top-dose-only effect, or another doubt; inactive means no such curve, though single readings can be large; an effect the other way counts as inactive or inconclusive;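 further: plate controls were enzyme without inhibitor for no effect and buffer without enzyme for full effect; nearly all actives have a fitted effect of over 40% in size; top concentration of the series not given in the record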
Target sequence (P25779 123-467 limits assumed): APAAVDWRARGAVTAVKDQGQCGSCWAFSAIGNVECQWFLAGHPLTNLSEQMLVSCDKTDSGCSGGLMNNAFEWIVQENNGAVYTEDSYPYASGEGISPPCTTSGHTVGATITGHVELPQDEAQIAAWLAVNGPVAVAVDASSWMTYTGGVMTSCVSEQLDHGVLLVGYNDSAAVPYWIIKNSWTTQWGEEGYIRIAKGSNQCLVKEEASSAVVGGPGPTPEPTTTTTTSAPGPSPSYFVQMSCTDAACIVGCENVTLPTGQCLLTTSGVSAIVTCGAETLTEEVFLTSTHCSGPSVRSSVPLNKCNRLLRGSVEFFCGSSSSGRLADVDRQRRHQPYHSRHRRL
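Purified cruzain at 1.5 nM, pre-incubated 15 min with compound at room temperature in 100 mM sodium acetate pH 5.5, 5 mM DTT, 0.00005% Triton X-100. Reaction started with 2 uM Z-FR-AMC; AMC fluorescence increase over 60 s gives rate.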
Cruzain Triton: blocks cruzain activity in presence of Triton detergent; purified cruzain, Z-FR-AMC fluorescence, 0.01% Triton; P25779; Potency, µM, for the others: max response, negative = inhibition, hits mostly inhibitors; AID 1478; 0.43% of 200,000 active; active means well fitted curve in the direction sought with a large enough effect; inconclusive means small, poorly fitted or top-dose-only effect, or another doubt; inactive means no such curve, though single readings can be large; an effect the other way counts as inactive or inconclusive;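 further: plate controls were neutral wells for no effect and buffer without enzyme for full effect; nearly all actives have a fitted effect of over 40% in size; top concentration of the series not given in the record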
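Compounds were screened in titration against cruzain (1.5 nM) with 0.01% Triton X-100 to counter colloidal aggregation. Activity was the AMC fluorescence increase over 60 s after adding 2 uM Z-FR-AMC at pH 5.5.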
SARS PLP yeast: blocks SARS-CoV papain-like protease in a yeast assay. S. cerevisiae expressing SARS-CoV PLpro, growth rescue; control for the full effect not named in the record. Potency, µM (titrated, usually from 32.9 µM), inactives show at the highest dose activity, positive = growth rescue. 0.19% of 330,000 active; further: 0% is about no effect; nearly all actives have a fitted effect of over 55% in size; growth read by luminescence after 48 h
Lassa entry inh: Lassa virus entry inhibition. Lassa virus pseudotype entry inhibition, cell reporter; control for the full effect not named in the record. Potency, µM (doses to about 37.9 µM), for inactives: at the highest dose activity change, negative = inhibition, actives largely listed as inhibitors. AID 540256. 1.2% of 300,000 active; active means well fitted inhibition curve with a large enough effect; inconclusive means small, poorly fitted or top-dose-only effect, or effect the other way; inactive means flat fitted curve, though single readings scatter; tested in HEK293 cells; further: on the % scale 0 is the no-effect control and ±100 the full control effect; nearly all actives have a fitted effect of over 50% in size; luciferase read-out
RE007 growth inh: less growth of the S. pombe RE007 Vpr strain; AID 651644; 0.21% of 360,000 active; S. pombe RE007 Vpr strain, BacTiter-Glo ATP luminescence, 24 h; control for the full effect not named in the record; Potency, µM (titrated, usually from 92.2 µM), for inactives: at the highest dose activity change, negative = less growth; active = well fitted falling curve with a large enough effect; inconclusive = small, poorly fitted or top-dose-only effect; inactive = no such curve, though single readings can be large or run the other way;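 further: on the % scale 0 is the no-effect control and ±100 the full control effect; nearly all actives have a fitted effect of over 50% in size; the assay follows cell death caused by Vpr and the record does not say whether a fall means rescue or toxicity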
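Fission yeast strain RE007, carrying one chromosomally integrated HIV-1 vpr copy, was seeded at OD 0.01 in PMG+AL medium with 23 nL pinned compound. After 24 h at 30 °C and 99% humidity, viability was read by BacTiter-Glo luminescence.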
2A StopGo: lowers the luciferase signal of an FMDV 2A StopGo reporter | Potency, µM (series often up to 57.9 µM), without a hit: at the top dose signal change, negative = less light | AID 1159524 | 1.2% of 410,000 active | human cells with a luciferase reporter of 2A StopGo recoding; control for the full effect not named in the record; active = well fitted falling curve with a large enough effect; inconclusive = small, poorly fitted or top-dose-only effect; inactive = no such curve, though single readings can be large or run the other way; tested in HEK293T cells; further: on the % scale 0 is the no-effect control and ±100 the full control effect; nearly all actives have a fitted effect of over 45% in size; luciferase light after 4 h
Marburg entry inh: blocks Marburg virus binding to or entry into cells; Potency, µM (series often up to 37.8 µM), for the others: at the top dose activity change, negative = inhibition, most hits filed as inhibitors; 1.8% of 300,000 active; Marburg virus pseudotyped entry inhibition, cell reporter; control for the full effect not named in the record; about a third of the inactives were read at about 46 µM; active = well fitted inhibition curve with a large enough effect; inconclusive = small, poorly fitted or top-dose-only effect, or effect the other way; inactive = flat fitted curve, though single readings scatter; tested in HEK293 cells; about a fifth of its hits are not listed in these tables; further: on the % scale 0 is the no-effect control and ±100 the full control effect; luciferase read-out
NS1 inh: influenza NS1 inhibition; S. cerevisiae slowed by influenza A NS1, growth recovery by OD600; Potency, µM (highest dose often 46.1 µM), for the others: top-dose activity, positive = more growth; 0.4% of 270,000 active; further: actives are rising curves; nearly all actives have a fitted effect of over 50% in size
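S. cerevisiae expressing influenza A NS1, grown in glucose, washed, then diluted 1:100 into pH 6.0 -URA galactose medium with 23 nl compound. Growth recovery read as OD600; NS1-free strain serves as control.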
* marks the source's active call; other numbers are inactive results; ? = inconclusive; nt = not tested or not shown; & = joins results of further samples; [ ] = remark or other dose. Unless noted, the call rests on the fitted dose curve; in most records, active means well fitted rising curve with a large enough effect; inconclusive means small, poorly fitted or top-dose-only effect; inactive means no such curve, though single readings can be large or run the other way. Potency means the concentration at half of the fitted maximal effect.

Preview, 5 compounds:
SMILES	Cruzain inh noDet	Cruzain Triton	SARS PLP yeast	Lassa entry inh	RE007 growth inh	2A StopGo	Marburg entry inh	NS1 inh
COc1ccc(C(C(=O)NCc2ccccc2)N(Cc2ccco2)C(=O)c2snc(C(N)=O)c2N)cc1OC (centres undefined)	nt	nt	-7%	nt	-16%	-9%	0%[46.1 µM]	-3%
COc1ccc(-c2cc3ccc(OCc4nn[nH]n4)cc3oc2=O)cc1OC	-9%	-12%	1%	-16%	3%[3.69 µM]	49%[activator]	-3%	-3%
CN1C(=O)c2oc3ccccc3c(=O)c2C1c1cccnc1 (centres undefined)	nt	nt	nt	23%	-3%	-13%	5%[46.1 µM]	nt
CCN(CC)S(=O)(=O)c1ccc(/C=C/C(=O)Nc2ccc(F)c(F)c2F)cc1	10%	2.0%	11%	?	5%	?	?	2%
Cc1cn(C)c(CC(=O)N2CCN(c3ccc(F)cc3)CC2)c1C(=O)O	-4%	2.5%	nt	6%[46.1 µM]	nt	-14%	nt	nt

The listing (from the top)
SMILES	Cruzain inh noDet	Cruzain Triton	SARS PLP yeast	Lassa entry inh	RE007 growth inh	2A StopGo	Marburg entry inh	NS1 inh
COc1ccc(C(C(=O)NCc2ccccc2)N(Cc2ccco2)C(=O)c2snc(C(N)=O)c2N)cc1OC (centres undefined)	nt	nt	-7%	nt	-16%	-9%	0%[46.1 µM]	-3%
COc1ccc(-c2cc3ccc(OCc4nn[nH]n4)cc3oc2=O)cc1OC	-9%	-12%	1%	-16%	3%[3.69 µM]	49%[activator]	-3%	-3%
CN1C(=O)c2oc3ccccc3c(=O)c2C1c1cccnc1 (centres undefined)	nt	nt	nt	23%	-3%	-13%	5%[46.1 µM]	nt
CCN(CC)S(=O)(=O)c1ccc(/C=C/C(=O)Nc2ccc(F)c(F)c2F)cc1	10%	2.0%	11%	?	5%	?	?	2%
Cc1cn(C)c(CC(=O)N2CCN(c3ccc(F)cc3)CC2)c1C(=O)O	-4%	2.5%	nt	6%[46.1 µM]	nt	-14%	nt	nt
Cc1ccc(N(CC(=O)NCc2ccco2)C(=O)CCC(=O)Nc2ccccn2)cc1C	?	0.1%	-4%	-17%	-13%	-20%	-5%	-5%
CCN(CC)CCCN(C(=O)c1ccco1)c1nc(-c2ccc(C)cc2)cs1	nt	nt	0%	?	-5%	2%	8.9µM*	-1%
O=C(Nc1ccc(Br)cc1C(=O)c1ccccc1Cl)c1ccccc1F	-3%	-0.9%	nt	15%[46.1 µM]	nt	-18%	nt	nt
Cc1ccccc1C(=O)Nn1cnc2ccccc2c1=O	nt	nt	3%	?	2%	53%[activator]	0%[46.1 µM]	nt
COc1ccccc1NC(=O)C1=C(C)Nc2ncnn2C1c1cccn1C (centres undefined)	4%	2.1%	nt	1%[46.1 µM]	nt	-17%	nt	nt
Cc1occc1C(=O)N1CCCC(CCC(=O)NCc2ccc(F)c(F)c2)C1 (centres undefined)	nt	nt	-1%	-4%	4%	19%	?	-4%
CCCCN(CC(=O)Nc1cccc(S(=O)(=O)N2CCCC2)c1)Cc1nc2ccccc2c(=O)[nH]1	nt	nt	4%	-17%	-18%	-8%	?	nt
O=C1c2ccccc2C(=O)N1CC1=NCCc2ccccc21	10%	-2.0%	1%	13%	12%	8%	?	5%
COc1cc(NC(=O)c2nnn(Cc3ccc(F)cc3)c2N)cc(OC)c1	-14%	0.2%	nt	8%[46.1 µM]	nt	31%[activator]	-11%[46.1 µM]	nt
O=C(CCN1C(=O)c2ccccc2S1(=O)=O)Nc1ccccc1F	nt	nt	-5%	22%[46.1 µM]	-5%	6%	13%[46.1 µM]	0%
Cc1ccc2c(c1)sc(=NC(=O)c1cccs1)n2C	nt	nt	-3%	nt	?	-72%	nt	-2%
COc1cc(-c2cc(C(=O)Nc3cc(S(=O)(=O)N4CCOCC4)ccc3C)c3ccccc3n2)cc(OC)c1OC	nt	nt	3%	?	-2%	-22%	?	nt
Cc1ccc(C(C)C)c(OCC(=O)NNC(=O)CC2OC(=O)c3ccccc32)c1 (centres undefined)	nt	nt	-9%	9%	-8%	-9%	11%	nt
CN(CCc1ccccn1)C(=O)Nc1cc(Cl)cc(Cl)c1	nt	nt	-2%	?	8%	2%	0%	-32%
CN(c1cccc(NC(=O)CCSc2ccccc2)c1)S(C)(=O)=O	-23%	0.9%	1%	11%	17%	14%	3%	-9%
COc1cccc2cc(-c3cc(=O)oc4ccc(OC(=O)N(C)C)cc34)oc12	nt	nt	4%	16%[46.1 µM]	9%	-28%	-1%[46.1 µM]	10%
O=C1CCc2cc(S(=O)(=O)N3CCN(c4cccc(C(F)(F)F)c4)CC3)ccc2N1	6%	5.3%	-5%	-25%	-10%	-16%	?	5%
COc1cc(C2c3c(oc4ccc(C)cc4c3=O)C(=O)N2Cc2ccc(F)cc2)ccc1O (centres undefined)	24%	0.3%	nt	16%[46.1 µM]	nt	-14%	23%[46.1 µM]	nt
CCOC(=O)N1CCC(NC(=O)C2CCN(S(=O)(=O)c3cccs3)CC2)CC1	12%	1.3%	0%	-3%	-3%	-17%	-5%	-13%
O=c1oc2ccccc2cc1-c1cn2ccccc2n1	nt	nt	-3%	1.8µM*	?	7.9µM*	nt	-5%
CN(C)CCNC(=O)c1ccc(Cl)c2cc3ccccc3nc12	nt	nt	nt	?	-5%	-23%	?	nt
COc1ccccc1OCC(=O)Sc1ccc(C)cc1	-7%	-14%	-6%	-23%	?	?	20%	-85%
Cc1ccc(S(=O)(=O)NCCN=Cc2ccc(N(C)C)cc2)cc1	nt	nt	-9%	-8%	5%	-7%	1%	-36%
COc1ccc(S(=O)(=O)Nc2cc3c4c(c2)CC(=O)N4CCC3)cc1C	nt	nt	-2%	-28%	8%	30%	?	nt
Cn1cc(/C=C2/SC(=O)N(CC(=O)Nc3ccc4c(c3)OCO4)C2=O)c2ccccc21	25µM*	-1.2%	-3%	?	3%	nt	?	16%
Cc1ccc(N(CC(=O)NC2CC2)S(=O)(=O)c2ccccc2)c(C)c1	nt	nt	1%	nt	-17%	11%	nt	-5%
CCCc1cc(-c2nc(-c3ccc(Br)cc3)cs2)ccn1	-4%	-7.9%	-63%	0%	-22%	-5%	11%	-56%
CC(C)(C)NC(=O)NC(=O)Cn1ccsc1=N	-3%	-1.3%	4%	?	-20%	-10%	11%	11%
Cc1cc(C)cc(NC(=S)NCc2ccc3[nH]c4c(c3c2)CCCC4)c1	32µM*	-0.8%	-4%	3.7µM*	-14%	-10%	?	24%
COc1ccc(OC)c(C(O)CNC(=O)CN)c1 (centres undefined)	4%	0.6%	nt	nt	8%[18.4 µM]	-12%&-10%	nt	nt
COc1ccccc1NC(=O)C1CCCN1C(=O)Nc1ccc(F)cc1 (centres undefined)	nt	nt	-2%	5%[46.1 µM]	-18%	34%[activator]	20%[46.1 µM]	13%
O=C(CSc1nnc(CNC(=O)c2ccc(F)cc2)o1)NCc1ccccc1	nt	nt	12%	-13%	-3%	-16%	6%	3%
O=C1CC(c2ccccc2)=NN1c1ccc([N+](=O)[O-])cc1	nt	nt	-4%	?	-2%	-4%	?	-1%
CC(=O)Nc1ccc2nc(-c3cc(C)ccc3C)[nH]c2c1	-6%	-3.1%	nt	-17%[46.1 µM]	nt	29%	nt	nt
CCN1CCN(S(=O)(=O)c2cccs2)CC1	-20%	2.7%	5%[6.58 µM]	11%	1%	nt	0%	4%
CCOc1ccccc1OCC(=O)Nc1nnc(C)s1	3%	0.1%	-1%	4%	5%	nt	0%	-4%
Cc1cc(OCC(=O)NCCN2CCOCC2)c2c(C)c(C)c(=O)oc2c1	nt	nt	-1%	nt	9%	-12%	nt	-1%
O=C(c1cccc(S(=O)(=O)N2CCN(c3ccccc3)CC2)c1)N1CCCCCCC1	nt	nt	-5%	?	-5%	?	?	nt
CCCCOc1ccc(N(CC(=O)NC(C)(C)C)C(=O)CCC(=O)Nc2nccs2)cc1	nt	nt	-4%	nt	7%	-6%	nt	?
Cc1ccc(S(=O)(=O)NCC(=O)OCC(=O)c2ccc(Cl)s2)cc1	nt	nt	nt	8%	3%	6%	?	nt
CC(=O)COc1ccc(-c2csnn2)cc1	nt	nt	1%	-4%[46.1 µM]	7%	16%	?	1%
CC(=O)N(C)c1ccc(OCC(O)COc2ccc(N(C)C(C)=O)cc2)cc1	-2%	1.3%	6%	-5%	7%	0%	17%	3%
Cn1c(=O)c2cc(S(=O)(=O)NC(C(=O)Nc3cccnc3)c3ccccc3)ccc2n(C)c1=O (centres undefined)	-13%	1.5%	3%	nt	-4%	27%	9%	0%

Random excerpt: three compounds from above.
SMILES	Cruzain inh noDet	Cruzain Triton	SARS PLP yeast	Lassa entry inh	RE007 growth inh	2A StopGo	Marburg entry inh	NS1 inh
CCN1CCN(S(=O)(=O)c2cccs2)CC1	-20%	2.7%	5%[6.58 µM]	11%	1%	nt	0%	4%
CC(=O)N(C)c1ccc(OCC(O)COc2ccc(N(C)C(C)=O)cc2)cc1	-2%	1.3%	6%	-5%	7%	0%	17%	3%
O=C(CSc1nnc(CNC(=O)c2ccc(F)cc2)o1)NCc1ccccc1	nt	nt	12%	-13%	-3%	-16%	6%	3%
